# UUG fidelity = alters start codon recognition fidelity in yeast; actives 0.13% (n = 350,000); activity score, % at 18.7 µM; S. cerevisiae UUG-firefly luciferase reporter, luminescence/redox ratio;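 active means replicate mean at a twofold rise or more, about +100% in these data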;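 further: firefly luciferase made from a UUG start codon reports start codon fidelity; reporter light over untreated wells divided by growth signal over untreated wells; some hits fall short of that in this replicate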
# PABP FP inh = PABP-poly(A) binding inhibition | P11940 | PABP-poly(A) RNA binding, fluorescence polarization | inhibition, % at 35 µM | actives 1% (n = 290,000) | AID 2014;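 active means 50% or more with normal probe brightness, or confirmed in later tests; about a fifth of its hits are not listed in these tables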;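 further: calls also rest on retests at 20 µM and on dose response follow-up; controls were probe without protein and protein plus probe with vehicle; some compounds called inactive have numbers as strong as hits; many hits fall short of the cut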
# Env fusion inh = HIV envelope-mediated fusion inhibition; AID 651610; HeLa-JRFL Env/CEM21 cell fusion, luciferase; inhibition, % at 12.3 µM; actives 1.1% (n = 360,000);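 active means mean replicate inhibition score of at least 50 and every replicate individually at or above 50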;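 further: 0% = plate neutral controls and 100% = maraviroc near 300 nM; one replicate is shown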
# CSC inhib = cancer stem cell inhibition. actives 1.1% (n = 300,000). AID 2717. cancer stem cell-like cells viability, luminescence. inhibition, % at 7.5 µM;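 active means mean at 75% or more and at least half the replicates too; tested in HMLE shEcad cells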;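 further: 0% = median of negative and 100% = median of positive control wells; the first replicate is given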
# Rce1 inhib = yeast Ras-converting enzyme inhibition; calls only; actives 0.27% (n = 290,000); Q03530; yeast membranes, quenched prenylated peptide cleavage fluorescence; AID 2563;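 active means fall in fluorescence gain of 50% or more versus controls, with final raw signal at or below 3038400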;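 further: plate controls were neutral control wells for no effect and wells lacking membranes for full effect; tested at 10 µM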
# Target sequence (Q03530 whole entry, looked up): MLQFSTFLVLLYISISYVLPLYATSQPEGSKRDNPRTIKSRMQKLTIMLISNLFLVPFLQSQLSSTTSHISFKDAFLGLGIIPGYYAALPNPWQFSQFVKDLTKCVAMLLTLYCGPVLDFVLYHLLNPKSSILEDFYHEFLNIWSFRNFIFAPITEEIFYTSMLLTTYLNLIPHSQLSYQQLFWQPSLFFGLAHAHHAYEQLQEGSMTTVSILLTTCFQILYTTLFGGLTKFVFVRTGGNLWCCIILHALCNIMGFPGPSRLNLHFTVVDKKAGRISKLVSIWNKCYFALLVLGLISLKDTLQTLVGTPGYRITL
# MT1-MMP act inh = inhibitors of human MT1-MMP activation; actives 0.061% (n = 360,000); P50281; GFP/RFP ratio change, % at 20 µM; HT1080 RFP-PRO-GFP cells, GFP/RFP ratio fluorescence, overnight; percent of plate control window, DMSO zero;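 active means GFP/RFP ratio change of at least 30% with cell ATP level not reduced by more than half and red fluorescence within 50% of control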; further: strong numbers were not always called active
#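 Assay system: RFP-PRO-GFP reporter HT1080 cells; read-out basis: GFP/RFP fluorescence ratio; benchmarks: DMSO wells and RFP-L50D-GFP cells; doses: 20 µM single dose, 1% DMSO; schedule: overnight cell settling, then overnight compound exposure, 37 °C, 5% CO2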
# eIF4H FP inh = inhibitors of RNA binding by human eIF4H; eIF4H fluorescence polarization binding assay; Q15056; AID 2012; actives 0.94% (n = 290,000); inhibition, % at 35 µM;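 active means 50% or more with normal probe brightness, or confirmed in later tests; about a fifth of its hits are not listed in these tables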;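 further: calls also rest on retests at 20 µM and on dose response follow-up; 0% = protein and probe with vehicle and 100% = probe without protein; strong numbers were not always called active; many hits fall short of the cut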
# eIF4H FP inh retest = recorded beside eIF4H FP inh, whose call it bears; inhibition, %; compound at 20 µM; confirmation average;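 mean of two retest wells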
# PABP FP inh retest = recorded beside PABP FP inh, whose call it bears; inhibition, %; compound at 20 µM; confirmation repeats;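 mean of two retest wells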
# MT1-MMP act inh RFP = recorded beside MT1-MMP act inh, whose call it bears; RFP signal change, %; measured here: RFP expression control read;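 0 = vehicle wells; hits needed this value within 50% of zero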
# * = called active by the depositor; i = inactive; . = no result given. Only part of the results is shown. The share of hits here may be higher or lower than overall.
SMILES,UUG fidelity,PABP FP inh,Env fusion inh,CSC inhib,Rce1 inhib,MT1-MMP act inh,MT1-MMP act inh RFP,eIF4H FP inh,others
c1ccc(N2CCN(Cc3ccsc3)CC2)nc1,-22,6,-14,-4,i,0,0,1,
COc1cccc(C(=O)COc2cccc(NC(=O)c3ccco3)c2)c1,-6,-7,1,-5,i,-3,0,6,
Cc1cccc(CS(=O)(=O)Cc2ccc(C(=O)NC3CCCCCC3)o2)c1,-5,-2,-5,18,i,3,-2,4,
O=C(CCNC(=O)c1ccccc1Cl)Nc1cc(C(F)(F)F)ccc1Cl,.,1,21,-4,i,-3,-2,-7,
O=C(O)CN1C(=O)SC(Nc2ccc(Cl)cc2)C1=O (stereo unspecified),.,10,.,3,i,6,5,-10,
CCSCCNC(=O)c1cncc(Br)c1,4,-6,-11,-3,i,-2,3,6,
Cc1cc(OCC(=O)NNC(=O)CCc2ccccc2)ccc1Br,-9,-2,-2,5,i,-3,-1,-1,
CCCNC(=O)C1(C)CCN(C(=O)c2cc(C)n(C(C)(C)C)n2)C1 (stereo unspecified),-11,.,-10,.,.,3,3,.,
Cc1ccc(OCC(=O)Nc2cc(S(=O)(=O)N3CCCCC3)ccc2C)c([N+](=O)[O-])n1,.,15,25,3,i,-4,-2,-4,
Cc1cccc(NCc2ccccc2OCc2ccccc2F)c1,-8,0,-3,10,i,0,-4,9,
COc1ccc(OC)c(-c2c(C#N)c(N)nc3c2c(=O)nc2sccn23)c1,.,54,-15,-16,i,-8,-6,8,eIF4H FP inh retest=1;PABP FP inh retest=2
COCCNC(=O)c1cc(-c2ccc(Cl)c(Cl)c2)on1,-16,-10,-60,.,i,-6,0,3,
C=CCNc1nc(C)c(C(C)=O)cc1C#N,-12,3,.,2,i,0,5,0,
CC(=NNC(=O)c1ccncc1)c1cccc(Br)c1,-20,.,-122,.,.,1,4,.,
O=C(OCc1cn([C@H]2C[C@H](c3ccccc3)N(CC3CCCCC3)C[C@@H]2O)nn1)c1ccccc1,0,.,-10,.,.,4,2,.,
Cc1[nH][nH]c(=O)c1C=NCc1cccs1,5,5,-1,-12,i,0,2,-2,
CCN1CCc2c(C#N)c(N3CCOCC3)nc(N3CCOCC3)c2C1,-4,-3,.,19,i,2,-1,-1,
CCOc1ccc2[nH]c3ncccc3c(=O)c2c1,.,9,-10,-16,i,5,2,31,
CCOC(=O)CCC(NC(=O)CCCCCCCCC(=O)NC(CCC(=O)OCC)C(=O)OCC)C(=O)OCC (stereo unspecified),.,-14,-12,-2,i,2,-5,-4,
O=C(NCc1nnc2c3ccccc3c(-c3ccccc3)nn12)c1ccccc1Cl,-21,-6,-5,-1,i,-1,1,-11,
CC(C)c1nccn1S(=O)(=O)c1cc(Cl)ccc1Cl,-22,2,.,-16,i,3,3,-5,
CCCOc1ccc(NC(N)=O)cc1OCCC,-9,-3,-28,-8,i,4,3,1,
O=C(NCc1nnc(SCC(=O)N2CCCc3ccccc32)o1)c1c(F)cccc1Cl,.,-6,2,-10,i,.,.,4,
O=C(NCCC(=O)N1CCN(c2ccccn2)CC1)c1ccc([N+](=O)[O-])cc1,-31,.,10,-2,.,-1,-3,.,
COCCNc1nc2cc(-c3cccc(C(F)(F)F)c3)sc2c(=O)n1C,13,.,18,.,.,8,4,.,

# Gathered by group, the entries above with an aryl methoxy group
SMILES,UUG fidelity,PABP FP inh,Env fusion inh,CSC inhib,Rce1 inhib,MT1-MMP act inh,MT1-MMP act inh RFP,eIF4H FP inh,others
COc1cccc(C(=O)COc2cccc(NC(=O)c3ccco3)c2)c1,-6,-7,1,-5,i,-3,0,6,
COc1ccc(OC)c(-c2c(C#N)c(N)nc3c2c(=O)nc2sccn23)c1,.,54,-15,-16,i,-8,-6,8,eIF4H FP inh retest=1;PABP FP inh retest=2

# The listing picks up, starting three compounds before the break.
SMILES,UUG fidelity,PABP FP inh,Env fusion inh,CSC inhib,Rce1 inhib,MT1-MMP act inh,MT1-MMP act inh RFP,eIF4H FP inh,others
O=C(NCc1nnc(SCC(=O)N2CCCc3ccccc32)o1)c1c(F)cccc1Cl,.,-6,2,-10,i,.,.,4,
O=C(NCCC(=O)N1CCN(c2ccccn2)CC1)c1ccc([N+](=O)[O-])cc1,-31,.,10,-2,.,-1,-3,.,
COCCNc1nc2cc(-c3cccc(C(F)(F)F)c3)sc2c(=O)n1C,13,.,18,.,.,8,4,.,
Oc1ccc(-c2[nH]ncc2-c2cnn(-c3ccccc3)c2)c(O)c1,-24,0,-6,29,i,3,4,-3,
O=C(NC1CCCCCC1)C(=S)NCCc1ccccc1,-11,-5,6,25,i,-4,0,-9,
COc1ccc(O)c(/C=N\NC(=O)CCn2nnc3ccccc32)c1,-17,-16,.,34,i,6,8,0,
C/C(=N\O)C1/C(=N/O)CC2C1C2(C)C (stereo unspecified),-24,-7,-4,-7,i,6,2,-8,
O=C(c1cccc(NS(=O)(=O)c2ccc(F)c(F)c2)c1)N1CCN(C(c2ccccc2)c2ccccc2)CC1,.,-16,-27,68,i,-15,-19,-5,
O=C(CN1CCN(c2ccc(F)cc2)CC1)Nc1ccc(-n2cnnn2)cc1,-12,3,.,2,i,-1,1,-10,
CCCOc1c(Br)cc(C(=O)OCC(=O)NC(=O)c2cccn2C)cc1OC,-6,.,.,-7,.,-4,-1,.,
N#CCc1nc(CSc2nc3ccccc3o2)cs1,-34,9,.,-3,i,-42,6,7,
CCOc1ccc(-c2nnn(CCC#N)n2)cc1OC,.,-13,0,-9,i,1,2,-1,
COCCN1CCN(C(=O)c2cc(COc3cc(C)ccc3C)on2)CC1,-18,0,.,-6,i,-4,-3,-6,
O=C(CCc1c[nH]c2ccccc12)NCC1COc2ccccc2O1 (stereo unspecified),.,-5,11,15,i,5,6,-4,
COc1cc(NC(=O)c2cc([N+](=O)[O-])ccc2NC(=O)CNC2CCCCC2C)cc(OC)c1 (stereo unspecified),4,-8,28,2,i,0,-8,4,
O=C(CO/N=C/c1ccccc1OC(F)F)NC1CCCC1,.,-16,16,-12,i,1,1,1,
CC(C)CN(CC(C)C)S(=O)(=O)N1CCC(C(=O)NCCN2CCOCC2)CC1,-15,-1,.,-5,i,-5,0,6,
O=C(CNC(=S)NC(=O)c1cccs1)c1ccccc1,-17,-7,-52,-9,i,-3,2,-9,
Cc1nc(C(F)(F)F)ccc1C(=O)N1CCC(C)(C(=O)NS(=O)(=O)C2CC2)C1 (stereo unspecified),-36,.,22,.,.,2,5,.,
O=C(CN1CCN(c2ccccc2F)CC1)c1ccc2cc[nH]c2c1,1,19,.,9,i,2,3,5,
O=C1N2c3ccccc3CCc3cccc(c32)C1(O)C(F)(F)F (stereo unspecified),-9,-7,.,-12,i,-1,-3,-12,
O=c1[nH]ncc(N/N=C\c2cccnc2)c1Cl,.,-18,26,-8,i,7,9,-10,
COc1ccc2[nH]cc(C(O)CN3CCN(c4ccccc4)CC3)c2c1 (stereo unspecified),.,-3,.,.,i,.,.,-5,
Cc1ccc(C(C)NC(=O)c2ccco2)cc1 (stereo unspecified),-25,10,-11,-8,i,-2,6,-6,
C/C=C/Cn1c(N(C)Cc2ccccc2)nc2c1c(=O)[nH]c(=O)n2C,-6,-3,-28,.,i,-4,-4,-5,
O=C(c1cccs1)c1coc2ccc(O)cc12,5,-9,-87,-8,i,-3,2,0,
CCOC(=O)c1sc(S(C)=O)c2c1CCc1conc1-2 (stereo unspecified),10,11,-1,-4,i,-28,0,-4,
O=C(CCn1cnnn1)Nc1ccc(Cl)cc1Cl,.,-10,-3,.,i,-2,4,-5,

# Arranged by count of non-hydrogen atoms (descending): part of the list above.
SMILES,UUG fidelity,PABP FP inh,Env fusion inh,CSC inhib,Rce1 inhib,MT1-MMP act inh,MT1-MMP act inh RFP,eIF4H FP inh,others
Oc1ccc(-c2[nH]ncc2-c2cnn(-c3ccccc3)c2)c(O)c1,-24,0,-6,29,i,3,4,-3,
O=C(NC1CCCCCC1)C(=S)NCCc1ccccc1,-11,-5,6,25,i,-4,0,-9,
CCOc1ccc(-c2nnn(CCC#N)n2)cc1OC,.,-13,0,-9,i,1,2,-1,

# Following part
SMILES,UUG fidelity,PABP FP inh,Env fusion inh,CSC inhib,Rce1 inhib,MT1-MMP act inh,MT1-MMP act inh RFP,eIF4H FP inh,others
COc1ccc(OCC(=O)Nc2c3c(nn2C(C)(C)C)CS(=O)(=O)C3)cc1,-3,9,-14,-2,i,1,2,-4,
Cc1c(Nc2nc(-c3ccc(Cl)cc3)cs2)c(=O)n(-c2ccccc2)n1C,-9,3,2,10,i,0,-13,-5,
CN(Cc1ccccc1)C(=O)COC(=O)Cn1cnc2ccccc21,-12,22,-48,-1,i,1,3,-7,
COc1ccc(C(C(=O)NC2CCCCC2)N(CC2CCCO2)C(=O)CCCC(=O)Nc2ccccn2)cc1 (stereo unspecified),7,-4,-5,.,i,0,0,-7,
O=C(Nc1ccc(Cl)cn1)c1ccc2c(Cl)c3c(nc2c1)CCC3,2,10,-84,-12,i,5,1,-3,
CCOCCn1ccc2c(OCC(=O)NCCc3ccc(OC)c(OC)c3)cccc2c1=O,-6,.,-18,-10,i,4,2,.,
O=C(Nc1cccnc1)Nc1ccc(Cl)cc1Cl,.,11,7,0,.,-3,-2,10,
CSc1ccccc1C(=O)C1CCCN(C(=O)c2cc(C(C)C)no2)C1 (stereo unspecified),3,0,8,1,i,-3,-2,6,
Nc1ccc(Cc2nc3cc4ccccc4cc3[nH]2)cc1,.,2,.,37,i,.,.,-9,
Cc1cc(C)n2cc(CSc3nnnn3-c3ccccc3C)nc2n1,-16,0,-29,2,i,-2,4,-3,
Nc1cc2c(cc1Br)-c1ccc(F)cc1C2=O,7,.,-64,.,.,5,1,.,
CCOc1ccc(-n2c(=O)c3c4c(sc3n(CC(=O)NCC3CCCO3)c2=O)CCC4)cc1 (stereo unspecified),.,21,-4,-19,i,1,2,15,
COc1ccc(N2CCN(C(CNS(=O)(=O)c3cc(F)ccc3F)c3cccnc3)CC2)cc1 (stereo unspecified),4,-4,.,13,i,0,2,7,
COc1ccc(OC)c(NC(=S)NCc2ccc(S(N)(=O)=O)cc2)c1,-25,3,8,-7,i,4,1,2,
O=CNc1cc(-c2ccc(C(=O)NC3CC3)cc2)cn2c(-c3ccc(F)cc3)cnc12,-9,.,47,.,.,-8,1,.,
